Source: PubChem BioAssay
GIV Gai3 FP = inhibitors of GIV peptide binding to Galpha-i3, primary screen, biochemical, fluorescence polarization, FITC-GIV GBA peptide, rat Galphai3. Guanine nucleotide-binding protein G(i) subunit alpha-3 (Rattus norvegicus), P08753. 90 min; active compounds read low; scaled: aluminum fluoride 0%, vehicle 100%. percent of control (FP), % (concentration not given with the values). 0.42% of 210,000 active;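 active means replicate mean at 85% of control or lower, very high polarization wells dropped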;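 further: wells of about 15 µL received 100 nL stock; the first replicate is given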
Target sequence (P08753 whole entry, looked up): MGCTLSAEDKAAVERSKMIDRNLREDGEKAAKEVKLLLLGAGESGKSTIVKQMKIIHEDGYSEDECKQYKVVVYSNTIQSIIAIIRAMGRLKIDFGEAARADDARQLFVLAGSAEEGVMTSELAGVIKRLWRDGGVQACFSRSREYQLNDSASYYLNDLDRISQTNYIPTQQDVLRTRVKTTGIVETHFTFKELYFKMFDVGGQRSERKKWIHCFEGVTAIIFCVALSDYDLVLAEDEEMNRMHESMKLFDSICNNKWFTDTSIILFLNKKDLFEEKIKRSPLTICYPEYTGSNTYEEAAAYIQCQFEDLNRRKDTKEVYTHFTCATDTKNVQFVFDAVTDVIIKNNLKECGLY
Sa growth inh = S. aureus growth inhibition at 42 and 30 °C, primary screen, LtaS inhibitor project, RN4220, two temperatures. OD600, 20 h, 42 °C; active compounds read low. relative growth, % (no concentration beside the values). 0.53% of 170,000 active. AID 720641, 2013;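 active means growth at 42 °C up to 50% and 20 or more points under that at 30 °C, or under 10% at both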;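 further: 300 nL library stock went into each well; scaled to the means of positive and negative controls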
HCMV UL50-53 inh = inhibitors of HCMV UL50-UL53 interaction, biochemical, HTRF; HCMV UL50-UL53 nuclear egress complex (human cytomegalovirus); normalized percent inhibition; inhibition, % (test concentration not listed); 0.15% of 190,000 active;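 active means both replicates at 50% or more, plus weaker picks with an unusually low signal ratio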;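 further: stock transfer was 100 nL into about 20 µL; 0% = negative control wells and 100% = wells with untagged competitor protein; inactives centre near -12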
Sa growth inh second temp = second read-out of Sa growth inh, no call of its own (marks repeat the call); relative growth, %; measured here: growth at 30 °C;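 optical density after 20 h as mean of two plates; 100% = untreated growth and lower means inhibition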
* marks the source's active call; other numbers are inactive results; nt = not tested or not shown; & = joins results of further samples.

SMILES	GIV Gai3 FP	Sa growth inh	Sa growth inh second temp	HCMV UL50-53 inh
CC1Cc2ccccc2N1C(=O)c1cccc(COc2ccc(Cl)cc2)c1 (stereo not given)	105	93	80	nt
COC(=O)c1ccc(C2Nc3c(C(=O)OC)cccc3C3C=CCC32)cc1 (stereo not given)	nt	94	96	-9
C/C(O)=C\c1sc2ccccc2[n+]1C	99	98	95	-5
CCNc1nc(NC(C)CC)nc(Oc2ccc(C(=O)OC)cc2)n1 (stereo not given)	109	nt	nt	-13
CC(Oc1ccccc1)C(=O)Nc1scc2c1c(=O)oc1ccccc12 (stereo not given)	101	81	86	nt
CCN(CC)N1CCN(S(=O)(=O)c2ccc(S(=O)(=O)c3ncccn3)cc2)CC1	104	118	91	nt
COc1ccc(CCNc2nc3c(c(=O)n(C)c(=O)n3C)n2Cc2cccc(F)c2)cc1OC	102	nt	nt	-24
O=C(O)CCc1nc2ccccc2c(=O)n1C1CC1	nt	99	97	-1
CNc1ccc(Br)cc1-c1nc2ccccc2[nH]c1=O	108	104	95	-20
CCN(CC)CCNCc1ccc(-c2ccc(OC)c(Cl)c2)o1	111	nt	nt	-7
Cc1nonc1OCCn1nnc(N)n1	101	101	76	3
CCOc1ccc2nc(NC(=O)c3ccccc3F)sc2c1	nt	100	88	-31
O=C(Nc1ccc(OC(F)(F)F)cc1)Nc1ccc(C2=NCCO2)cc1	104	84	95	22
N#CC(C#N)=CNNc1ncnc2ccsc12	109	87	66	-39
O=C(/C=C/c1ccco1)NNc1ccc2ccccc2n1	nt	85	87	-48
COC(=O)C(Cc1ccc(O)cc1)NC(=O)NC12CC3CC(CC(C3)C1)C2 (stereo not given)	106	122	101	-12
CC(C)=C1C2C=CC1C1C(=O)N(Cc3cccnc3)C(=O)C21 (stereo not given)	nt	85	117	2
Cn1c(=S)n(CCSc2nc3ccccc3n2-c2ccccc2)c2ccccc21	nt	110	95	-11
O=C(COc1ccc2oc3c(c2c1)CCCC3)Nc1ccccn1	101	99	78	-17
Cc1ccc(N2C(=O)CSC23C(=O)N(CC(=O)Nc2ccccc2F)c2ccccc23)cc1C (stereo not given)	106	114	91	nt
COc1ccc(OC)c(CCCc2cc(OC)ccc2OC)c1	101	91	93	-9
CCOC(=O)CCc1c(C)nc(SCCCn2c(=O)[nH]c3ccccc32)c(C#N)c1C	99	85	86	6
O=C(Cn1c(=O)n(Cc2ccccc2)c(=O)c2oc3ccccc3c21)Nc1ccc(Cl)cc1	106	109	89	nt
CCC1C(=O)CC(c2ccco2)NC1c1ccco1 (stereo not given)	nt	77	90	-22

Part of the list above, in markdown.
| Molecule | GIV Gai3 FP | Sa growth inh | Sa growth inh second temp | HCMV UL50-53 inh |
| --- | --- | --- | --- | --- |
| CCOC(=O)CCc1c(C)nc(SCCCn2c(=O)[nH]c3ccccc32)c(C#N)c1C | 99 | 85 | 86 | 6 |
| COc1ccc(OC)c(CCCc2cc(OC)ccc2OC)c1 | 101 | 91 | 93 | -9 |
| O=C(/C=C/c1ccco1)NNc1ccc2ccccc2n1 | nt | 85 | 87 | -48 |

Next results follow.
SMILES	GIV Gai3 FP	Sa growth inh	Sa growth inh second temp	HCMV UL50-53 inh
Cc1cc(=O)c(C(=O)NCc2ccccc2CN2CCCC2)nn1-c1ccccc1	nt	68	88	-16
Cn1cccc1C(=O)Nc1ccc(S(=O)(=O)N2CCOCC2)cc1	nt	91	91	-31
Cc1cnc2c(c1)C(=Nc1ccccc1)c1ccccc1-2	nt	110	82	-42
COc1ccc(C(=O)N2CCSC2=S)cc1OC	101	103	90	-10
Cc1ccc(S(=O)(=O)CCC(=O)O)cc1C	101	96	96	nt
Cc1ccc(Cn2ccn(-c3ccccc3)c(=O)c2=O)cc1	105	nt	nt	-50
O=C(O)c1ccccc1Nc1ccn2c(=O)c3ccccc3nc2n1	nt	82	89	-54
CCOC(=O)c1cc(C(C)(C)C)[nH]c(=S)c1C#N	103	92	85	-57
Cc1cccc(S(=O)Cc2ccc(C(=O)N3CCc4ccccc43)o2)c1 (stereo not given)	112	101	89	-12
N#CCN(CC#N)C(=O)Cc1ccc(Br)cc1	104	100	77	-3
COC(=O)c1sccc1N=CC1=C(O)C(c2ccccc2)CCC1=O (stereo not given)	95	86	87	-1
Cc1cc2c(cc1NC(=O)CC13CC4CC(CC(C4)C1)C3)n(C)c(=O)n2C	107	100	76	-23

23 entries from above, reformatted.
SMILES | GIV Gai3 FP | Sa growth inh | Sa growth inh second temp | HCMV UL50-53 inh
CC1Cc2ccccc2N1C(=O)c1cccc(COc2ccc(Cl)cc2)c1 (stereo not given) | 105 | 93 | 80 | nt
COC(=O)c1ccc(C2Nc3c(C(=O)OC)cccc3C3C=CCC32)cc1 (stereo not given) | nt | 94 | 96 | -9
C/C(O)=C\c1sc2ccccc2[n+]1C | 99 | 98 | 95 | -5
CCNc1nc(NC(C)CC)nc(Oc2ccc(C(=O)OC)cc2)n1 (stereo not given) | 109 | nt | nt | -13
CC(Oc1ccccc1)C(=O)Nc1scc2c1c(=O)oc1ccccc12 (stereo not given) | 101 | 81 | 86 | nt
CCN(CC)N1CCN(S(=O)(=O)c2ccc(S(=O)(=O)c3ncccn3)cc2)CC1 | 104 | 118 | 91 | nt
COc1ccc(CCNc2nc3c(c(=O)n(C)c(=O)n3C)n2Cc2cccc(F)c2)cc1OC | 102 | nt | nt | -24
O=C(O)CCc1nc2ccccc2c(=O)n1C1CC1 | nt | 99 | 97 | -1
CNc1ccc(Br)cc1-c1nc2ccccc2[nH]c1=O | 108 | 104 | 95 | -20
CCN(CC)CCNCc1ccc(-c2ccc(OC)c(Cl)c2)o1 | 111 | nt | nt | -7
Cc1nonc1OCCn1nnc(N)n1 | 101 | 101 | 76 | 3
CCOc1ccc2nc(NC(=O)c3ccccc3F)sc2c1 | nt | 100 | 88 | -31
O=C(Nc1ccc(OC(F)(F)F)cc1)Nc1ccc(C2=NCCO2)cc1 | 104 | 84 | 95 | 22
N#CC(C#N)=CNNc1ncnc2ccsc12 | 109 | 87 | 66 | -39
O=C(/C=C/c1ccco1)NNc1ccc2ccccc2n1 | nt | 85 | 87 | -48
COC(=O)C(Cc1ccc(O)cc1)NC(=O)NC12CC3CC(CC(C3)C1)C2 (stereo not given) | 106 | 122 | 101 | -12
CC(C)=C1C2C=CC1C1C(=O)N(Cc3cccnc3)C(=O)C21 (stereo not given) | nt | 85 | 117 | 2
Cn1c(=S)n(CCSc2nc3ccccc3n2-c2ccccc2)c2ccccc21 | nt | 110 | 95 | -11
O=C(COc1ccc2oc3c(c2c1)CCCC3)Nc1ccccn1 | 101 | 99 | 78 | -17
Cc1ccc(N2C(=O)CSC23C(=O)N(CC(=O)Nc2ccccc2F)c2ccccc23)cc1C (stereo not given) | 106 | 114 | 91 | nt
COc1ccc(OC)c(CCCc2cc(OC)ccc2OC)c1 | 101 | 91 | 93 | -9
CCOC(=O)CCc1c(C)nc(SCCCn2c(=O)[nH]c3ccccc32)c(C#N)c1C | 99 | 85 | 86 | 6
O=C(Cn1c(=O)n(Cc2ccccc2)c(=O)c2oc3ccccc3c21)Nc1ccc(Cl)cc1 | 106 | 109 | 89 | nt

Later entries:
SMILES	GIV Gai3 FP	Sa growth inh	Sa growth inh second temp	HCMV UL50-53 inh
Cc1ccc2ccc3cc(C(=O)N4CCN(c5ccccc5)CC4)nc3c2[nH]1	110	131	101	nt
CCCOc1ccc(-c2nc(SC)[nH]c(=O)c2C#N)cc1OC	102	110	90	-4
N=c1oc2ccc(Cl)cc2cc1C(N)=O	112	84	71	-102
O=C(CCCn1nc(-c2ccccc2)c2ccccc21)NCc1ccc(Cl)cc1	102	nt	nt	-22
Nc1ccc2nc(SCc3ccc(F)cc3)sc2c1	106	78	49	-22
Cn1c(NC(=O)Cc2ccc(F)cc2)nc2ccccc21	99	129	89	-8
C=CCSc1ncnc2sc3c(c12)CCC(C)C3 (stereo not given)	94	85	85	-22
COC(=O)c1cc2oc3ccccc3c2n1Cc1ccc(Cl)cc1	97&106	101	93	15&-21
Cc1ccc(C(=O)NCCc2csc3nc(-c4cccc(C)c4)nn23)cc1	107	126	89	8
CN(C(=O)CSc1nc(-c2ccccc2)nc2cc(=O)[nH]n12)c1ccccc1	97	nt	nt	-20
CCCn1nnc2cc(S(=O)(=O)N3CCCC(C(=O)N4CCC(C)CC4)C3)ccc21 (stereo not given)	103	nt	nt	0
COc1cc(C2CC(=O)Nc3nc(N)[nH]c(=O)c32)ccc1OCc1ccc(C)cc1 (stereo not given)	97	nt	nt	-12
COc1ccc(NC(=O)C(C)N2CCN(C)CC2)cc1 (stereo not given)	100	111	94	-7
CC(C)(C)OC(=O)N1CCC(c2c(C(=O)NCc3ccc4c(c3)OCO4)cnn2-c2ccc(F)cc2F)CC1	106	95	89	nt
COc1cc2c(cc1OC)C(c1cccc(Cl)c1)CC(=O)N2 (stereo not given)	102	101	83	-8
S=C(NC1CC1)N1CCCN(Cc2cccc3ccccc23)CC1	100	113	92	-7
C(=N\[n+]1ccccc1)/c1ccccc1	nt	107	91	-17
COC(=O)c1ccc(NC(=O)C(=O)NCCc2csc(-c3ccc(C(F)(F)F)cc3)n2)cc1	100	104	86	nt
O=C(NCCN1CCOCC1)c1ccncc1	101	85	80	-3
Cc1ccc(N2CCSC2c2ccco2)cc1 (stereo not given)	112	95	87	-12
